Ba CapD inh: blocks the Bacillus anthracis CapD enzyme; purified CapD enzyme, fluorescence intensity read-out; active compounds read low; some hits fall short of the stated cut; z-score (concentration not given with the values); 140,000 tested, 0.23% active; AID 492967;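 active means z-score under -4 in either of two replicates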;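 further: stock transfer was 100 nL into about 40 µL; score is relative to mean and spread of the plate; one replicate is shown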
AID504770: E. coli YBA685 growth inhibition, screen for V. cholerae RctB inhibitors; 130,000 tested, 0.27% active; E. coli YBA685 rctB-dependent plasmid, OD600 growth, 3 h; active compounds read low; AID 504770; z-score (test concentration not listed);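 active means z-score under -2 on both plates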;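 further: wells of about 30 µL received 100 nL stock; score is relative to mean and SD of the test wells; the first replicate is given; strong numbers were not always called active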
Active calls of the source: *; · = no result given. The list is partial; the hit share may differ from the screen's.

SMILES	Ba CapD inh	AID504770
Nc1ccc(S(=O)(=O)N2CCCCC2c2cccnc2)cc1 (centres undefined)	·	-1
CC(C)OC(=O)c1nnn(-c2nonc2N)c1CN1CCCCCC1	-0.35	·
O=C(CN1C2=NCCCN2c2ccccc21)c1cccs1	·	-1.1
CCN(CC)c1ccc(NC(=O)CN(C)Cc2ccccc2C)cc1	·	-0.1
CN(CCCn1cnc2c([nH]c3ccccc32)c1=O)C1CCCCC1	0.07	0.5
CCOC(=O)c1nn(-c2ccc(C(F)(F)F)cc2)c(=O)cc1C(F)(F)F	-0.24	·
CC1(C)CC(NC(=O)Cc2ccc(Cl)cc2)CC(C)(C)N1	·	-0.75
Cc1nc(-c2ccccc2)sc1-c1nnc(-c2cccc3ccccc23)o1	106	0.75
CC(=O)Nc1ccc(C(=O)CSc2nc3ccccc3c(=O)n2CC2CCCO2)cc1 (centres undefined)	·	-0.25
O=C(NN1CC(=O)N(C2CCCC2)C1=O)C(c1ccccc1)c1ccccc1	·	-0.35
COc1ccc(-c2cc(C(F)(F)F)nc(SCC(=O)Nc3cn(C)nc3C)n2)cc1OC	-1.5	-0.4
CCOC(=O)C1CCN(C(=O)Cc2ccccc2OC)CC1	0.24	-0.65
Cc1c(C(=O)Nc2ccc(F)cc2)sc2ncnc(N3CCN(c4ccccn4)CC3)c12	-0.89	·
O=C(Nc1cc(Cl)cc(Cl)c1)C1CCCC1	-0.09	-1.1
Cc1ccccc1NC(=O)Nc1sc(NS(=O)(=O)c2ccccc2)nc1C	-0.18	0.1
COc1ccc(S(=O)(=O)Nc2ccc3[nH]c(C(C)(C)C)cc3c2)cc1	-0.72	·
CCC(C)S(=O)(=O)c1oc(-c2ccc(F)cc2)nc1S(=O)(=O)c1ccc(C)cc1 (centres undefined)	0.05	-0.8
CCCc1cc(=O)oc2cc(OC(=O)N(C)C)ccc12	0.26	-0.55
O=c1cccc(-c2ccc(O)cc2)o1	-2.7	1.2
Cc1ncoc1C(=O)Nc1ccc(C(C)C)cc1	·	-1.2
OC(CN1CCN(c2ccc(C(F)(F)F)cn2)CC1)c1ccccc1 (centres undefined)	0.99	0.05
CC1CCCC(NC(=O)COC(=O)c2ccc(O)cc2)C1C (centres undefined)	-0.85	1.9
O=C(CSc1nc2ccccc2nc1-c1ccccc1)NCC1CCCO1 (centres undefined)	1.2	-1.4
COC(=O)c1cc(SC#N)ccc1N	8	-1.2
Cc1cc2nc(-c3ccccc3)cc(=O)n2[nH]1	30	·
O=c1c2ccccc2cnn1-c1ccccc1	0.1	·
CC1=C(C(=O)OCC2CCCO2)C(c2ccccc2OCc2ccccc2)C2=C(CC(C)(C)CC2=O)N1 (centres undefined)	19	·
CN(C)S(=O)(=O)Nc1cccc(-c2cn3c(n2)SCC3)c1	·	-0.25
COc1ccc(-n2c(Cc3cc(=O)[nH]c(=O)[nH]3)nnc2SCC(N)=O)cc1	-0.07	1.9
COC(=O)NC1C2CC3CC(C2)CC1C3 (centres undefined)	-0.52	0.4
CCCn1c(CCC(=O)N2CCc3ccccc3C2)nc2cccnc21	0.2	-0.35
COc1cc(OC)nc(-c2nnc(SCc3ccc(Cl)cc3)n2C)n1	-0.45	·
Cn1c(=O)n(C)c2cc(NC(=O)C(F)(F)F)ccc21	·	0.85
CCn1c2ccccc2c2cc(CN3CCC(NC(=O)Cc4nc(-c5ccccc5)oc4C)C3)ccc21 (centres undefined)	11	·
CCN1CCN(C(=O)C23CCC(C)(C(=O)O2)C3(C)C)CC1 (centres undefined)	-0.39	-0.85
O=C(COc1ccccc1)NCc1nnc(SCC(=O)N2CCc3ccccc32)n1-c1cccc(C(F)(F)F)c1	-0.45	·
COC(=O)C1=C(C(=O)OC)SC(=C2C(=S)C(C)(C)N(C(=O)C3CC3)c3ccc(C)cc32)S1	-0.095	·
CCCCN1C(=O)C(NC(=O)c2cccnc2)(C(F)(F)F)C2=C1CC(C)(C)CC2=O (centres undefined)	-1.1	1.2
Cc1ccc(/C=C(\C#N)C(=O)C(C)(C)C)o1	·	-1.2
CN(C)c1ncc(S(=O)(=O)c2ccc(Cl)cc2)c(-c2ccccc2)n1	-0.57	·

Molecules shown so far containing a thiophene ring, fused or not, in the order listed:
SMILES	Ba CapD inh	AID504770
O=C(CN1C2=NCCCN2c2ccccc21)c1cccs1	·	-1.1
Cc1c(C(=O)Nc2ccc(F)cc2)sc2ncnc(N3CCN(c4ccccn4)CC3)c12	-0.89	·

The list goes on.
SMILES	Ba CapD inh	AID504770
COc1ccc(Cl)c2sc(N3CCN(C(=O)c4ccco4)CC3)nc12	·	2.1
Cc1nc(C(=O)NOCC(=O)OC(C)(C)C)c(C(F)(F)F)o1	-0.86	·
CCN(C(=O)CSc1ncccc1C(=O)O)c1cccc(C)c1	0.83	-0.9
CN1/C(=C\C=C2C(=O)NC(=O)NC2=O)C(C)(C)c2ccccc21	·	-1.1
CC(C)(C)OC(=O)CCC(NC(=O)c1cc(=O)n(-c2ccccc2)[nH]1)C(N)=O (centres undefined)	0.34	·
COc1ccccc1CC1(C)NC(=O)N(CC(=O)c2cc(C)n(Cc3ccco3)c2C)C1=O (centres undefined)	·	1.3
Cc1ccc(-c2nnc(-c3c(-c4ccccc4)nn(C)c3Cl)o2)cc1	-0.15	·
COc1ccc(C2=NOC(C(=O)NCc3ccccc3)C2)cc1 (centres undefined)	0.23	-0.4
COC(=O)c1ccc(COc2ncnc3ccccc23)o1	·	-0.8
Cc1cc(=O)oc2c3c(ccc12)OCN(c1ccc(Cl)c(Cl)c1)C3	13	·
O=C1C(=O)N(c2cccc(C(F)(F)F)c2)C(c2ccc(Cl)cc2)/C1=C(\O)c1ccc(Br)cc1 (centres undefined)	-0.53	·
COc1cc(OC)c(NC(=O)Nc2nnc(N3CCCC3)s2)cc1Cl	-0.12	0.75
Clc1ccc(Cl)c(Sc2ncnc3ccsc23)c1	3.3	1.5
Cc1ccccc1-c1nc(SCc2cccc(F)c2)c(C#N)c2c1CCC2	-0.11	·
COc1ccc(NCn2c3ccccc3c3ccccc32)cc1	0.11	-0.05
O=C(O)CC1(CC(=O)Nc2ccc3c(c2)OCO3)CCCC1	-0.53	-0.05
CCc1ccnc(NC(=O)Nc2ccccc2C(C)(C)C)c1	0.56	-0.85
Cn1c(SCC(N)=O)nnc1-c1ccc(S(=O)(=O)N2CCCC2)cc1	·	0.15
CCOC(=O)c1c(NC(=O)CSc2nnc(-c3ccccc3)o2)sc2c1CCCC2	0.2	-0.3
CC1CCCN(C(=O)COC(=O)C2=NN(c3ccccc3)C(=O)CC2)C1 (centres undefined)	·	-0.05
O=C(Cc1n[nH]c(=O)c2ccccc12)Nc1ccc2c(c1)OCCO2	·	0.75
O=C(NCCCN1CCCC1)c1ccc(CS(=O)Cc2ccccc2Cl)o1 (centres undefined)	-0.67	0.3
CCC(C)NC(=S)N(C)N (centres undefined)	·	-0.45
CC(=O)NC1(NC(C)=O)CCN(C)CC1	-0.15	·
O=C(NCc1cccc(C(F)(F)F)c1)c1cc2cccnc2nc1C(F)(F)F	-0.21	·
CN(C)P1(N(C)C)=Nc2c(c(N)nn2C)C(c2ccccc2)=N1	·	0.2
CCn1c(O)c(C=Nc2cccc3c2C(=O)NC3=O)c(=O)n(CC)c1=S	·	0.4
C1=C(c2c[nH]c3ccccc23)CCNC1	0.7	-0.85
O=C(NCCCN1CCCCC1)c1ccc(-n2c(-c3ccccc3)cc3c2CCCC3)cc1	63	-0.15
COc1cc(/C=C2\Sc3ccccc3C2=O)c(Br)cc1O	0.045	·
COc1ccc(N2C(=O)NC(=O)/C(=C\c3ccc(OCc4ccc(C(=O)O)cc4)c(OC)c3)C2=O)cc1	0.77	·
CC(C)NC(=O)c1ncoc1-c1cccs1	69	-0.65
COc1cc(C(=O)NNC(=O)c2ccc(-c3ccccn3)s2)cc(OC)c1OC	4.6	·
Cc1c(Cl)cccc1NC(=S)N(Cc1ccco1)C1CCN(C(C)C)CC1	0.14	-0.65
O=c1oc2ccccc2n1CNc1ccccn1	0.31	-0.75
CCOC(=O)c1cnc2sccn2c1=O	84	-0.65
COc1cc(C2CC(=O)N3CN(Cc4ccccc4)CSC3=C2C#N)cc(Br)c1O (centres undefined)	-0.76	0.3
CCOC(=O)c1nnn2c1nc(Sc1nc3ccccc3o1)c1ccccc12	13	0
O=C(O)CN1C(=O)/C(=C\c2ccc(O)cc2)SC1=S	-3.6	·
COc1cc(CC#N)c(OC)cc1CC#N	0.9	·
CN1CCC2=C1/C(=N\OC(=O)c1ccccc1)SC2=Nc1ccccc1	·	-0.3
N#Cc1c(N)nc2c(c1-c1ccccc1)CCCCC2	5.1	-0.8
O=C(Nc1nc(SCc2ccc(Cl)cc2)n[nH]1)c1cccs1	0.36	0.9
CCOC(=O)c1cc(S(=O)(=O)N(CC)c2ccccc2)cn1C	0.6	0.45
CCOc1cc(C(=O)Nc2ccc(S(=O)(=O)N3CCCCC3c3cccnc3)cc2)cc(OCC)c1OCC (centres undefined)	0	·
Oc1oc(-c2ccccc2)nc1C=Nc1ccc2ccccc2c1	0.48	0.4
O=C(NC1=NCCS1)c1cc2c(s1)CCCCCC2	6.5	1.5
CCCCn1c(=O)[nH]c(=O)c2c1nc(COC(=O)c1ccccc1)n2CCC(C)C	·	-0.4
COc1cc([N+](=O)[O-])c(OC)cc1SCC(=O)NNC(=O)c1cc(OC)c(OC)c(OC)c1	-0.85	·
C[C@]12CCC3c4ccc(O)cc4CCC3C1CC[C@@H]2O (some centres undefined)	-0.45	0.15
COC(=O)C1=C(C)N(C)C(=O)NC1c1ccc(O)c(OC)c1 (centres undefined)	-0.18	0.2
O=C(c1ccccc1)c1cnc2cc3c(cc2c1N1CCCCCC1)OCCO3	-0.41	-0.8
NC(=O)CSc1nnc2c(n1)[nH]c1ccccc12	-0.17	·
CCOC(=O)C(CC)Sc1nnc(NC(=O)c2ccc3c(c2)OCO3)s1 (centres undefined)	·	-0.4
COc1ccc(/C=C2\CCC/C(=C\c3ccc(N(C)C)cc3)C2=O)cc1	-0.1	·
O=C(COc1ccccc1)N1N=C(c2ccc(F)cc2)CC1(O)C(F)(F)F (centres undefined)	-0.28	·
CNc1cc(NC)c2ncnc3c2c1C(=O)c1ccccc1-3	-0.2	-0.7
CCS(=O)(=O)c1nc2ccccc2n1CC(=O)N(C)c1ccccc1	·	-0.75
CCOC(=O)N1CCN(C(=O)c2cc(S(C)(=O)=O)ccc2Cl)CC1	·	1.6
CCN(C(=O)CSc1nnc(C(C)(C)C)n1N)c1cccc2ccccc12	·	0.45

Looked up one by one from the entries so far (5):
SMILES	Ba CapD inh	AID504770
O=C(Nc1nc(SCc2ccc(Cl)cc2)n[nH]1)c1cccs1	0.36	0.9
CN1CCC2=C1/C(=N\OC(=O)c1ccccc1)SC2=Nc1ccccc1	·	-0.3
COc1cc([N+](=O)[O-])c(OC)cc1SCC(=O)NNC(=O)c1cc(OC)c(OC)c(OC)c1	-0.85	·
CCOC(=O)N1CCN(C(=O)c2cc(S(C)(=O)=O)ccc2Cl)CC1	·	1.6
CCCCn1c(=O)[nH]c(=O)c2c1nc(COC(=O)c1ccccc1)n2CCC(C)C	·	-0.4

Next entries
SMILES	Ba CapD inh	AID504770
CCOC(=O)c1cc2c(=O)n3cccc(C)c3nc2n(C(C)C)c1=NC(=O)c1ccc2c(c1)OCO2	·	-0.05
CCC(=O)Nc1nc2cc3nc(NC(=O)CC)sc3cc2s1	2.6	-0.45
COc1ccc(-c2[nH]nc3c2C(c2cc(OC)c(OC)cc2OC)C2=C(CC(C)(C)CC2=O)N3)cc1 (centres undefined)	2.8	0.45
Fc1cccc(Cl)c1COn1c(-c2ccc(Cl)cc2)nc2ccccc21	3.6	·
CC(C)(C)C(=O)/C=C1\C(=O)Nc2ccc(Br)cc21	0.055	-0.7
CC(C)(C)C1CC=C2C(C#N)=C(N)C(C#N)(C#N)C(c3cccc(Cl)c3)C2C1 (centres undefined)	9.6	·
COCCn1c(C)cc(C(=O)COc2nc3ccccc3nc2C)c1C	·	-0.05
Brc1ccc(-c2ncc3ccccn23)cc1	9.7	-0.15
CC1(C)CC(NC(=O)c2cc3ccccc3oc2=O)CC(C)(C)N1	9.8	0.25
COCCOc1cc(C)nc(N2CCOCC2)n1	0.85	-0.25
CC1CC(C)CN(C(=O)c2ccc3c(c2)NC(=O)CN3)C1 (centres undefined)	23	-0.65
CN(C)c1ccc(CNC(=O)CC(c2cccs2)n2cccc2)cc1 (centres undefined)	0.06	0.1
CCN1CNC(=S)N(C2CCCCC2)C1	2.6	-0.65
COc1ccc(OC)c2c1CC(C)(C)n1c(-c3ccc(Cl)cc3)nnc1-2	-0.17	-0.15
Cc1cc2n(c(=O)c1C(N)=O)CCO2	-0.045	-0.9

Three compounds from above, sorted by formula weight, descending.
SMILES	Ba CapD inh	AID504770
CCC(=O)Nc1nc2cc3nc(NC(=O)CC)sc3cc2s1	2.6	-0.45
CC1CC(C)CN(C(=O)c2ccc3c(c2)NC(=O)CN3)C1 (centres undefined)	23	-0.65
Brc1ccc(-c2ncc3ccccn23)cc1	9.7	-0.15
